High-throughput results from PubChem.
PABP polyA inh: blocks human PABP binding to poly(A) RNA | P11940 | fluorescence polarization | inhibition, % at 35 µM | hit rate 1% among 290,000 | AID 2014;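 active = 50% or more with normal probe brightness, or confirmed in later tests; inconclusive = above 50% with abnormal brightness, or retests that disagree; inactive = below 50% or failed in later tests; about a fifth of its hits are not listed in these tables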;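 also: calls also rest on retests at 20 µM and on dose response follow-up; controls were probe without protein and protein plus probe with vehicle; some compounds called inactive have numbers as strong as hits; many hits fall short of the cut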
Target sequence (P11940 whole entry, looked up): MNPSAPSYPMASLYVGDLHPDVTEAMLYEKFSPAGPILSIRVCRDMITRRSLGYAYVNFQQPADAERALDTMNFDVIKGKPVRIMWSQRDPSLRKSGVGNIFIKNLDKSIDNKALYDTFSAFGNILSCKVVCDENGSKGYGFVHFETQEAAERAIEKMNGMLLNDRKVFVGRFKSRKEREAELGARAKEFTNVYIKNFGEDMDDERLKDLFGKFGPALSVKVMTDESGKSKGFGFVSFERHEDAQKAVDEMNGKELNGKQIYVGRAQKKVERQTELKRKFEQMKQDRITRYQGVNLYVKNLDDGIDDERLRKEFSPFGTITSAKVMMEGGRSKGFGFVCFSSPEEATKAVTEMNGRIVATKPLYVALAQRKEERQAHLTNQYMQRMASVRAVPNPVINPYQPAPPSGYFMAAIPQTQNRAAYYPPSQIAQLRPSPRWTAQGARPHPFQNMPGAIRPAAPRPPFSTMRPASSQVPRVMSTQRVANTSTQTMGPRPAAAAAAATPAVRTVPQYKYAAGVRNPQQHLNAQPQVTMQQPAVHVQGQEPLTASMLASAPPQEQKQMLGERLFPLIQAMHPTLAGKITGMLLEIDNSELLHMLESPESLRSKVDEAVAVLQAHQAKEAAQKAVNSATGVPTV
MT1-MMP act inh: MT1-MMP (human) activation inhibition; AID 651647; HT1080 RFP-PRO-GFP cells, GFP/RFP ratio fluorescence, overnight; percent of plate control window, DMSO zero; P50281; hit rate 0.061% among 360,000; GFP/RFP ratio change, % at 20 µM;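 active = GFP/RFP ratio change of at least 30% with cell ATP level not reduced by more than half and red fluorescence within 50% of control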; also: strong numbers were not always called active
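Assay system: HT1080 cells carrying an RFP-PRO-GFP reporter | Dosing: Single dose of 20 µM compound, 1% DMSO final | Incubation: Cells overnight before dosing, compound overnight, 37 °C, 5% CO2 | Evaluation: GFP/RFP fluorescence ratio | Control set: DMSO and RFP-L50D-GFP cell wells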
eIF4H FP inh: inhibitors of RNA binding by human eIF4H | Q15056 | eIF4H fluorescence polarization binding assay | inhibition, % at 35 µM | hit rate 0.94% among 290,000;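 active = 50% or more with normal probe brightness, or confirmed in later tests; inconclusive = above 50% with abnormal brightness, or retests that disagree; inactive = below 50% or failed in later tests; about a fifth of its hits are not listed in these tables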;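 also: calls also rest on retests at 20 µM and on dose response follow-up; 0% = protein and probe with vehicle and 100% = probe without protein; strong numbers were not always called active; many hits fall short of the cut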
Rce1 inhib: blocks yeast Ras-converting enzyme; Q03530; yeast membranes, quenched prenylated peptide cleavage fluorescence; calls only; hit rate 0.27% among 290,000; AID 2563;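 active = fall in fluorescence gain of 50% or more versus controls, with final raw signal at or below 3038400; inconclusive = same 50% fall but final raw signal above 3038400; inactive = fall in fluorescence gain under 50%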;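 also: plate controls were neutral control wells for no effect and wells lacking membranes for full effect; tested at 10 µM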
Target sequence (Q03530 whole entry, looked up): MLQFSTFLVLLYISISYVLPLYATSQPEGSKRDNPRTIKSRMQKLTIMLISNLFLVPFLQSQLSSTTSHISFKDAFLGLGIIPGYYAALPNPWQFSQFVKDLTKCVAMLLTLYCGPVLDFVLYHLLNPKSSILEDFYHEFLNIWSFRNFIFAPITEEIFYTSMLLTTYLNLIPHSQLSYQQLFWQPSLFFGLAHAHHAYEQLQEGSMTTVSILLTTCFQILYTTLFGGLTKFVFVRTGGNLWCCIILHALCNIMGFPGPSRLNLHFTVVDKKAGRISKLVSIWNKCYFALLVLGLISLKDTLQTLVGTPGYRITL
Env fusion inh: HIV envelope-mediated fusion inhibition. HeLa-JRFL Env/CEM21 cell fusion, luciferase. inhibition, % at 12.3 µM. hit rate 1.1% among 360,000;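 active = mean replicate inhibition score of at least 50 and every replicate individually at or above 50; inconclusive = only one of the two criteria met; inactive = mean below 50 and not all replicates reaching 50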;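 also: 0% = plate neutral controls and 100% = maraviroc near 300 nM; one replicate is shown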
CSC inhib: blocks cancer stem cells; AID 2717; inhibition, % at 7.5 µM; hit rate 1.1% among 300,000; cancer stem cell-like cells viability, luminescence;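 active = mean at 75% or more and at least half the replicates too; inconclusive = mean and replicates disagree; tested in HMLE shEcad cells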;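 also: 0% = median of negative and 100% = median of positive control wells; the first replicate is given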
Yeast UUG start: yeast start codon fidelity modulation | S. cerevisiae UUG-firefly luciferase reporter, luminescence/redox ratio | activity score, % at 18.7 µM | hit rate 0.13% among 350,000;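 active = replicate mean at a twofold rise or more, about +100% in these data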;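 also: firefly luciferase made from a UUG start codon reports start codon fidelity; reporter light over untreated wells divided by growth signal over untreated wells; some hits fall short of that in this replicate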
eIF4H FP inh retest: second read-out of eIF4H FP inh, no call of its own (marks repeat the call); inhibition, %; compound at 20 µM; confirmation average;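 mean of two retest wells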
PABP polyA inh retest: recorded beside PABP polyA inh, whose call it bears; inhibition, %; compound at 20 µM; confirmation repeats;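 mean of two retest wells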
MT1-MMP act inh RFP: further read-out of MT1-MMP act inh, marked with its call; RFP signal change, %; measured here: RFP expression control read;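 0 = vehicle wells; hits needed this value within 50% of zero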
* hit, by the source's call; i = inactive; u = inconclusive; x = no result given; [ ] = another dose, or the depositor's remark. The list is partial (hit frequency here may not be typical).

SMILES | PABP polyA inh | MT1-MMP act inh | MT1-MMP act inh RFP | eIF4H FP inh | Rce1 inhib | Env fusion inh | CSC inhib | Yeast UUG start | others
Cc1ccc(NC(=O)CN(C)CC(=O)Nc2c(C)cccc2C)c(Br)c1 | 0 | -2 | -1 | -5 | i | -28 | -4 | -9
O=C(Nn1cnnc1)c1ccc(Cl)c(Cl)c1 | 3 | -2 | 1 | -8 | i | -2 | x | -11
CCOC(=O)c1c(C)oc2c1c1c(c3ccccc32)OCN(Cc2ccccn2)C1 | 24 | 1 | 9 | 32 | i | x | 12 | x
COc1cc(OC)cc(C(=O)NCCCNC(=O)c2cccnc2)c1 | 4 | 2 | 5 | -4 | i | -3 | x | -10
Cc1ccc(CC(=O)Nc2cccc(C)n2)cc1 | -7 | -4 | -6 | -2 | i | -53 | -11 | -14
COc1ccccc1-c1nnc(-c2ccc(F)cc2)o1 | x | 4 | 2 | x | i | -35 | 4 | -6
CCC(C)N1CC(C(=O)NC2CCCCC2)CC1=O (stereo not given) | -2 | 2 | 2 | -4 | i | x | -3 | -3
CCOC(=O)Cc1cc(=O)n2[nH]c(C(C)(C)C)cc2n1 | -4 | -5 | 4 | -4 | i | u | -12 | x
O=C(CSc1cc(Cl)ccc1Cl)NCCCn1ccnc1 | 1 | -3 | 2 | 8 | i | 2 | 5 | -15
CCn1c(=O)c(=O)[nH]c2cc(C(=O)NC3CCCC3)ccc21 | -2 | 3 | -1 | -7 | i | -11 | x | 13
O=C(c1ccccc1)C1OC1C(=O)c1ccccc1 (stereo not given) | x | -7 | -15 | x | x | -227 | x | -34
CCO[C@H]1OC(C(=O)NCc2nc3ccccc3[nH]2)=C[C@@H](c2ccc3c(c2)OCO3)[C@@H]1CCCO | x | 0 | 1 | x | i | -15 | -8 | 1
CCC(C)C1Nc2ccc(C(=O)NCCc3ccc(OC)c(OC)c3)cc2NC1=O (stereo not given) | 4 | -1 | 1 | 3 | i | x | -12 | -8
CCN(CC)c1ccc(S(=O)(=O)N2CCOCC2)cc1NC(=O)COC(=O)C1=COCCO1 | x | 3 | 0 | x | x | -2 | x | -12
COc1ccccc1C1C2=C(N=c3s/c(=C/c4cccc(OCC(=O)O)c4)c(=O)n31)c1ccccc1CC2 (stereo not given) | 2 | -13 | -10 | 24 | x | 39 | 48 | x
Cc1ccc(C(=O)NCC(=O)N(C)Cc2ccc(Cl)cc2Cl)s1 | x | -2 | -4 | x | x | -11 | x | -2
Cc1ccccc1S(=O)(=O)NC(=O)C1(C)CCN1C(=O)Cc1ccc(Cl)cc1Cl (stereo not given) | x | 2 | 2 | x | x | -7 | x | -1
Cc1ccc(S(=O)(=O)N2Cc3ccccc3CC2C(=O)Nc2cc(C)on2)cc1 (stereo not given) | -12 | 1 | 0 | -13 | i | x | -2 | x
COCCNC(=S)N/N=C(\C)c1cccc(C(F)(F)F)c1 | -6 | 3 | -2 | -6 | i | -45 | 13 | -21
N#CC(c1ccccc1)C1CCN(Cc2ccccc2)CC1 (stereo not given) | -6 | 8 | 5 | -8 | i | -88 | -5 | -14
COc1ccc(CCN(C)C(=O)COc2ccc(N(C)S(=O)(=O)c3ccc(C)cc3)cc2)cc1OC | x | 5 | -10 | x | i | x | -8 | -2
COc1cc(C2CC(=O)c3cnc(N)nc3C2)cc(OC)c1OC (stereo not given) | -6 | 3 | 3 | -9 | i | -35 | -1 | -9
Cc1cccc(NC(=S)N(CCc2ccncc2)C(C)C)c1C | -10 | 1 | 2 | -5 | i | 1 | -18 | x
Brc1ccc2oc(-c3ccn[nH]3)cc2c1 | 4 | 2 | -5 | -4 | i | -113 | 8 | -15
CC(C)(C)C(=O)NC(=S)Nc1ccccc1F | -2 | 4 | -8 | 1 | i | -101 | -10 | -14
CNc1cncc(-c2ccc(OC)c(OC)c2)n1 | x | -5 | -1 | x | x | 4 | x | -12
Cc1cccc(-n2c(C)cc(/C=N\NC(=O)c3cccs3)c2C)c1 | -8 | 3 | 6 | -3 | i | 4 | 41 | 3
CC(=O)CSc1nc(-c2ccccc2)c(-c2ccccc2)o1 | 7 | -6 | 2 | 6 | i | 5 | -5 | -3
CCOc1ccccc1NC(=O)COC(=O)/C=C/c1ccc(OC)c(OC)c1 | 56 | -1 | 3 | 6 | i | 23 | 9 | x | eIF4H FP inh retest=-12;PABP polyA inh retest=9
Cc1c(C)c2ccc(OCC(=O)NC3CCN(Cc4ccccc4)CC3)c(C)c2oc1=O | 2 | 4 | -2 | -14 | i | 0 | -3 | 0
O=C(N[C@H]1CC[C@H](CC(=O)N2CCCCC2)O[C@@H]1CO)c1cccc(F)c1 | x | -2 | 3 | x | x | 2[16.7 µM] | x | -4
CCCCc1cc(=O)oc2cc(OCC(=O)N3CCC(C(N)=O)CC3)ccc12 | 6 | -3 | 1 | 6 | i | x | -2 | -9
O=C(CCN1C(=O)C2CCCCC2C1=O)Nc1ccc(OC(F)F)cc1 (stereo not given) | x | 2 | 2 | x | i | -6 | -5 | x
CCN(CC)C(=O)c1nc(-c2cccc3ccccc23)no1 | x | -4 | 2 | x | x | -19 | x | -12
COc1ccccc1-n1c(CNC(=O)c2cccc([N+](=O)[O-])c2C)n[nH]c1=S | -10 | 1 | 3 | -3 | i | -9 | 5 | -30
Clc1ccc(-c2nc(-c3cnccn3)no2)cc1 | 2 | 3 | -3 | 0 | i | -82 | 20 | -18
Cc1ccc(S(=O)(=O)N2CCSC2)cc1C | -4 | -6 | -1 | -2 | i | x | 6 | -6
O=P(O)(OCc1ccccc1)OCc1ccccc1 | x | 0 | 6 | x | x | x | -13 | -10
CC1CCCN(C(=O)CCc2ccccc2)C1 (stereo not given) | 2 | 0 | -2 | 3 | i | 12 | -12 | x
Cc1cccc(C)c1NC(=S)Nc1ccc(Cl)c(Cl)c1 | 4 | 11 | 5 | -4 | i | 4 | 5 | -20
Cc1cccn2c(=O)c3cc(C(=O)NCc4ccco4)c(=N)n(CCc4ccccc4)c3nc12 | 27 | 2 | -2 | 50 | x | 2 | x | x
Cc1cccc([C@@H]2[C@@H]3C(=O)N(Cc4ccccc4)C(=O)[C@@H]3[C@]3(CC(C)C)C(=O)N(c4cccc(Br)c4)C(=O)N23)c1 | -13 | -13 | -6 | 12 | i | x | 11 | -17
Cc1cc(C)c(NC(=O)CN2C(=O)NC(Cc3ccccc3)C2=O)c(C)c1 (stereo not given) | -10 | -6 | -2 | -19 | i | 5 | -10 | -4
CCOc1ccc(NC(=O)c2ccc(Br)o2)c([N+](=O)[O-])c1 | 12 | -14 | -2 | 26 | i | -136 | 3 | -23
c1ccc2c(c1)OCC(c1nnc3sc(-c4ccc5c(c4)OCO5)nn13)O2 (stereo not given) | 0 | 3 | -4 | 0 | i | -58 | 8 | -12
Cc1ncc([N+](=O)[O-])n1CC(=O)N/N=C/c1ccc(F)cc1 | 5 | 3 | 8 | -2 | i | 10 | -5 | 6
c1ccc(Nc2nnc(SCc3cccc4ccccc34)s2)cc1 | 8 | 2 | -3 | 12 | i | x | x | -33
COc1ccc(-c2cc(C(F)F)n3ncc(C(=O)N4CCN5CCCC5C4)c3n2)cc1 (stereo not given) | 1 | 5 | -1 | -4 | i | -114 | -5 | -10

Next part (two carried over from the part before).
SMILES | PABP polyA inh | MT1-MMP act inh | MT1-MMP act inh RFP | eIF4H FP inh | Rce1 inhib | Env fusion inh | CSC inhib | Yeast UUG start | others
c1ccc(Nc2nnc(SCc3cccc4ccccc34)s2)cc1 | 8 | 2 | -3 | 12 | i | x | x | -33
COc1ccc(-c2cc(C(F)F)n3ncc(C(=O)N4CCN5CCCC5C4)c3n2)cc1 (stereo not given) | 1 | 5 | -1 | -4 | i | -114 | -5 | -10
NS(=O)(=O)c1ccc(CCNC(=O)COC(=O)C2CCCN2C(=O)c2cccs2)cc1 (stereo not given) | -3 | 4 | 0 | -3 | i | 23 | -15 | 19
Cc1cc(NC(=O)CSc2c3c(nc4ccccc24)CCC3)no1 | -2 | 0 | -6 | 2 | i | -14 | 20 | -9
Cc1sc2ncnc(OCC(=O)Nc3ccc4c(c3)OCCO4)c2c1C | 1 | 1 | -1 | -15 | i | x | -12 | -6
NC(=O)c1nc(-c2cccs2)nc2c1[nH]c(=O)n2-c1ccc(F)cc1 | 7 | -4 | -2 | -8 | i | 10 | 18 | -45
CC(C)(C)OC(=O)CC[C@@H](C(=O)NCCCCCCCCCCC(=O)N1CCN(C(=O)OC(C)(C)C)CC1)n1cc(CCCCCNC(=O)OC(C)(C)C)nn1 | x | 6 | -4 | x | x | 9 | -1 | 1
O=C(COc1ccc(F)cc1Cl)Nc1cc(S(=O)(=O)N2CCOCC2)ccc1N1CCCCC1 | -13 | -9 | -10 | -14 | i | 34 | -1 | -11
NC(c1ccccc1)c1csc(Nc2ccc(C(=O)c3ccccc3)cc2)n1 (stereo not given) | x | -4 | -7 | x | x | 20 | x | -17
CC(=NO)C1CCC2C3CCC4=CC(=NO)CCC4(C)C3C(=O)CC12C (stereo not given) | x | 2 | 0 | x | x | -138 | x | -1
NC(=O)c1ccc(NC(=O)c2cncn2-c2ccccc2)cc1 | -4 | -1 | 0 | -4 | i | 3 | -5 | -5
Cc1onc(-c2ccccc2)c1C(=O)OCc1nnc(-c2ccccc2)o1 | x | 2 | -5 | x | i | 4 | -8 | x
COc1ccccc1OCC(=O)NNC(=O)c1cnccn1 | -7 | 1 | 9 | 1 | i | x | 8 | x
COCCn1c(=NC(=O)c2ccc(S(=O)(=O)N3CCOCC3)cc2)sc2cc(S(N)(=O)=O)ccc21 | -8 | 1 | -4 | -10 | i | 13 | -12 | -11
CC(C)CCN1CCC(CN2C(=O)C(=O)NC[C@@H]2Cc2ccccc2)CC1 | x | 6 | 8 | x | x | 14 | x | -8
CN1CCN(CCCN(Cc2cccs2)C(=S)Nc2ccc(Cl)cc2)CC1 | 0 | -5 | -4 | -12 | x | -2 | 7 | x
COc1ccccc1NC(=O)CSc1nc2c(sc3ccccc32)c(=O)n1CCN(C)C | -17 | -2 | -4 | -6 | i | 7 | 6 | -12
COc1ccc2c(c1)sc(=N)n2C | -7 | 3 | -1 | -14 | i | 17 | -12 | -21
COc1ccc(-c2nc(-c3cccc(C)c3)nc(N3CCN(C)CC3)c2C#N)cc1 | -8 | -15 | -19 | 1 | i | x | -7 | -2
CCC(C)n1c(SCC(=O)Nc2ccccc2C(F)(F)F)nc2ccsc2c1=O (stereo not given) | 6 | -1 | -5 | -4 | i | -7 | 1 | -5
O=C(CSc1ncnc2nc[nH]c12)Nc1nnc(SCc2ccc(Cl)c(Cl)c2)s1 | 8 | -2 | 3 | 40 | i | 0 | 93* | x
Cn1c(=O)oc2cc(S(=O)(=O)NCCN3CCN(c4ccccc4F)CC3)ccc21 | 11 | 0 | 4 | 14 | i | x | x | 1
COc1ccc(C(=O)Nc2nc3ccc(S(C)(=O)=O)cc3s2)cc1OC | 9 | -4 | -2 | -8 | i | 12 | x | x
Cc1nn(CCC(=O)N2CCN(S(=O)(=O)c3ccc(Cl)cc3)CC2)c(C)c1C | -2 | -4 | -2 | 8 | i | 14 | -7 | -15
CNC(=O)CCCN1C(=O)c2ccccc2Sc2ncccc21 | 7 | -2 | 0 | -2 | i | -10 | 5 | -9
COc1ccc(C(=O)Nc2cc(C)c3c(=O)oc4ccccc4c3n2)cc1 | 1 | 3 | 7 | -9 | i | 16 | -20 | -29
